GIV Gai3 FP = inhibitors of GIV GBA-motif binding to rat Galpha-i3 | 210,000 tested, 0.42% active | percent of control (FP), % (concentration not given with the values) | P08753 | Galpha-i3/FITC-GIV peptide fluorescence polarization, 90 min; active compounds read low; scaled: aluminum fluoride 0%, vehicle 100%;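 active means replicate mean at 85% of control or lower, very high polarization wells dropped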;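 further: wells of about 15 µL received 100 nL stock; the first replicate is given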
Target sequence (P08753 whole entry, looked up): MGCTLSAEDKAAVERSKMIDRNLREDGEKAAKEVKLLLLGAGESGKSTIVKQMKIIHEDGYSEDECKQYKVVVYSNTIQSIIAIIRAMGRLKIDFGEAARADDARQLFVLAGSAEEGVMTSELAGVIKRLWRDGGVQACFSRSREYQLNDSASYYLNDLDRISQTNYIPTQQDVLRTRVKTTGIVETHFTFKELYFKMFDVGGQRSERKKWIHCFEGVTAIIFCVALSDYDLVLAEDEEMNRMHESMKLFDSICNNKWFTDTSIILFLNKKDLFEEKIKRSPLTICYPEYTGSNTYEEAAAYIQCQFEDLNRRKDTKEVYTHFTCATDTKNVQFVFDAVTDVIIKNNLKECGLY
Sa growth inh = S. aureus growth inhibition. S. aureus RN4220 growth, OD600, 20 h, 42 °C; active compounds read low. relative growth, % (concentration not given with the values). AID 720641. 170,000 tested, 0.53% active;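 active means growth at 42 °C up to 50% and 20 or more points under that at 30 °C, or under 10% at both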;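 further: 300 nL library stock went into each well; scaled to the means of positive and negative controls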
HCMV NEC inh = cytomegalovirus nuclear egress complex inhibition | inhibition, % (no concentration beside the values) | 190,000 tested, 0.15% active | HTRF UL50-UL53 interaction, normalized percent inhibition;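 active means both replicates at 50% or more, plus weaker picks with an unusually low signal ratio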;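 further: stock transfer was 100 nL into about 20 µL; 0% = negative control wells and 100% = wells with untagged competitor protein; inactives centre near -12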
Sa growth inh second temp = also measured in Sa growth inh; calls as there; relative growth, %; measured here: growth at 30 °C;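 optical density after 20 h as mean of two plates; 100% = untreated growth and lower means inhibition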
The depositor's hits bear a star; nt = not tested or not shown; & = joins results of further samples.

SMILES | GIV Gai3 FP | Sa growth inh | Sa growth inh second temp | HCMV NEC inh
CCn1nc(C)c(CCN(C)C(=O)Nc2ccc(F)cc2)c1C | 104 | nt | nt | -4
[O-][n+]1onc2c1CCc1nnccc1-2 | 104 | 113 | 110 | -95
Cn1c(-c2ccc(F)cc2)nc2ccccc21 | nt | 98 | 66 | -17
O=C(CCCn1c(=O)oc2ccccc21)Nc1cccnc1 | nt | 94 | 88 | -13
Cc1ccc(/C=C2/C(=O)NC(=O)N(C3CCCCC3)C2=O)cc1 | 101 | 111 | 73 | -1
COc1ccc(C)cc1NC(=O)CN(c1cc(C(F)(F)F)ccc1Cl)S(C)(=O)=O | 95 | 93 | 85 | -19
CCCNC(=O)Nc1cccc(-c2noc(-c3cncc(Br)c3)n2)c1 | 99 | nt | nt | -7
CC(C)[C@H](NC(=O)c1ccccc1)C(=O)N1CCN(c2ccccc2)CC1 | nt | 96 | 97 | -19
Cc1cccc(N2CCN(C(=O)C3CCCN(C(=O)c4cc5sccc5n4C)C3)CC2)c1C (stereo unspecified) | 100 | 93 | 39 | 3
COC(=O)c1ccccc1NC(=O)CSc1ccccn1 | 105 | 93 | 93 | 3
Cc1ccc(NC(=O)C2CCCN(S(=O)(=O)N3CCOCC3)C2)cc1Cl (stereo unspecified) | 107 | 99 | 94 | -20
CCOC(=O)C1CCCN(C(=O)c2cc(N(C)S(=O)(=O)c3ccccc3)ccn2)C1 (stereo unspecified) | 99 | nt | nt | -39
CC1CCN(C(=O)CN2c3cccc4cccc(c34)S2(=O)=O)CC1 | nt | 125 | 88 | -39
O=C(c1cnn(-c2ccccc2)n1)N1CCCSc2ccccc21 | nt | 74 | 80 | -11
Cc1ccccc1OCC(=O)Nc1cccc(-c2nnc(-c3ccco3)o2)c1 | 102 | 100 | 74 | nt
O=C(Cn1c2ccccc2c(=O)c2ccccc21)Nc1ccc(Oc2ccccc2)cc1 | 103 | nt | nt | -8
COc1ccccc1C(=O)Nc1ccc2c(c1)nc(CCNC(=O)c1ccco1)n2C | 100 | 88 | 87 | -10
CCCCSc1nnc(CNC(=O)c2ccccc2)n1-c1ccccc1 | 98 | 85 | 70 | -26
CCCCOc1ccc(CSCCN=C(N)N)cc1 | 102 | 126 | 21 | -16
COc1ccccc1Cn1cnc2ccccc21 | 101 | 91 | 75 | 9
COc1ccc(CCCN=C(N)N)cc1Cl | 103 | 81 | 106 | -11
Cc1cccc(NC(=O)CN2C(=O)CC(C)S(=O)(=O)c3ccccc32)c1 (stereo unspecified) | 103 | 104 | 96 | nt
O=S(=O)(NCC(c1ccco1)N1CCN(c2ccc(F)cc2)CC1)c1cc(F)ccc1F (stereo unspecified) | 102&99 | 82&95 | 92&78 | -9
CCN(C(=O)CSc1nc2nc(C)c(Cc3cc(C)ccc3C)c(C)n2n1)c1cccc(C)c1 | 106 | 102 | 91 | nt
COc1ccc(-c2nc3c(s2)CN(C(=O)Nc2cc(OC)ccc2OC)CC3)cc1 | 103 | nt | nt | -30
CC(=O)C1=C(C)OC(N)=C(C#N)C1c1cc([N+](=O)[O-])ccc1Cl (stereo unspecified) | 102 | nt | nt | -62
Cn1nnc2c(NCc3ccc(Cl)cc3)ncnc21 | 98 | 90 | 79 | nt
Nn1c(Cc2ccccc2F)nnc1SCC(=O)NCc1ccc2c(c1)OCO2 | nt | 98 | 77 | -7
Cc1nc2ccn(Cc3ccccc3)c(=O)c2cc1C(=O)N1CCN(c2ccc(F)cc2)CC1 | 103 | 72 | 87 | nt
Cc1ccc(-n2nc(N3CCCN(C(=O)c4ccc5nccnc5c4)CC3)ccc2=O)cc1C | 101 | nt | nt | -83
O=C(Nc1cc(Cl)cc(Cl)c1)c1ccc(F)c(S(=O)(=O)N2CCc3ccccc32)c1 | 100 | 70 | 92 | nt
COc1ccc(S(=O)(=O)Cc2ccc(C(=O)O)o2)cc1 | 102 | 88 | 93 | -14
Cc1nn(C)c(C)c1CNC(=O)c1ccc(N2CCOCC2)nc1 | 106 | 104 | 83 | -40
O=C(NCc1ccc2c(c1)CCO2)C1=Cc2ccccc2OC1 | 101 | 81 | 107 | -5
O=C1C2ON(c3ccccc3)C(c3ccc(F)cc3)C2C(=O)N1c1ccccc1 (stereo unspecified) | 107 | 103 | 111 | -1
Cc1c(C(=O)NC2CCN(Cc3ccccc3)CC2)cnn1-c1ccc(F)cc1 | 99 | 103 | 88 | 2
CCN(Cc1ccccc1)c1ncc(NS(=O)(=O)c2ccc(C)cc2)cc1C(=O)O | 110 | nt | nt | -31
CC(=O)N1CCCc2cc(S(=O)(=O)N3CCN(c4ccccc4F)CC3)ccc21 | 103 | 99 | 85 | nt
CC(C)(C)c1cc(Cl)c(O)c(NC(=O)c2cncc(Br)c2)c1 | 99 | 112 | 88 | -9
COc1ccccc1NC(=O)c1oc2ccccc2c1NC(=O)c1ccccc1C(F)(F)F | 108 | 105 | 83 | -13
O=C1c2cccc3c(Cl)ccc(c23)C(=O)N1c1ccccn1 | 99 | 104 | 86 | -148
CCOC(=O)c1cc(-c2ccc(/C=C3\Sc4ccccc4C3=O)o2)ccc1Cl | 104 | nt | nt | -22
CC(C)Cc1ccc(-c2cc(N)c(C(N)=O)s2)cc1 | 102 | 84 | 94 | -26
O=C1c2ccccc2C(=O)C1c1ccccc1Br | 100 | 100 | 110 | -2
Cc1ccc(C(=O)N(Cc2ccc3c(c2)OCO3)C2CCCC2)o1 | nt | 81 | 88 | -27
COC(=O)Cc1[nH]n(-c2nc3ccccc3s2)c(=O)c1C(C)=NC1CC1 | 107 | 102 | 79 | -8
COc1ccc(-c2coc3cc(OCC(=O)O)ccc3c2=O)cc1OC | 98 | nt | nt | -18
Cc1nnc(N2CCN(c3ccccc3F)CC2)c2c1nnn2Cc1ccccc1Cl | 99 | 99 | 87 | -32
CCc1ccc(NC(=O)CN2C(=O)C(c3ccc(C)cc3)=NC23CCCCC3)cc1 | 102 | 109 | 84 | -22
CCN1C(=O)C=CC1=O | 99 | nt | nt | -24
Cc1ccc2occ(CC(=O)N(Cc3ccc(N(C)C)cc3)C3CCS(=O)(=O)C3)c2c1 (stereo unspecified) | 105 | 114 | 91 | -6
COc1ccc(C(=O)NC(=S)Nc2ccc3[nH]c(=O)[nH]c3c2)cc1Br | 102 | 89 | 92 | nt
O=C(O)C(Cc1ccccc1)c1ccccc1 (stereo unspecified) | 104 | 88 | 91 | -6
C=CCn1cnc2sc3c(c2c1=O)CCC(C)C3 (stereo unspecified) | 101 | 98 | 83 | -38
CS(=O)(=O)c1ccccc1-c1nnc(NC(=O)c2ccc3c(c2)OCCO3)o1 | 104 | 74 | 71 | nt
CC(C)CC(OC(=O)c1cccs1)C(=O)NCc1cccs1 (stereo unspecified) | 101 | 119 | 109 | 5
COC(=O)CSc1nc(C)cc(C)n1 | 104 | 88 | 82 | -34
COC(=O)c1cc2ccsc2n1C(C)C(=O)Nc1ccc(OC)c(OC)c1 (stereo unspecified) | 101 | nt | nt | -4
COc1cc2c(cc1OC)CN(C(=O)C1CCCN1S(=O)(=O)c1ccc(C)cc1)CC2 (stereo unspecified) | 98 | 105 | 87 | -3
Cc1cc(=O)[nH]c(SCC(=O)c2ccc(F)cc2)n1 | 98 | 104 | 85 | -38

12 entries already listed, ordered by length of the SMILES, low to high:
SMILES | GIV Gai3 FP | Sa growth inh | Sa growth inh second temp | HCMV NEC inh
CCN1C(=O)C=CC1=O | 99 | nt | nt | -24
COC(=O)CSc1nc(C)cc(C)n1 | 104 | 88 | 82 | -34
O=C(O)C(Cc1ccccc1)c1ccccc1 (stereo unspecified) | 104 | 88 | 91 | -6
C=CCn1cnc2sc3c(c2c1=O)CCC(C)C3 (stereo unspecified) | 101 | 98 | 83 | -38
CC(C)CC(OC(=O)c1cccs1)C(=O)NCc1cccs1 (stereo unspecified) | 101 | 119 | 109 | 5
COc1ccc(-c2coc3cc(OCC(=O)O)ccc3c2=O)cc1OC | 98 | nt | nt | -18
COC(=O)c1cc2ccsc2n1C(C)C(=O)Nc1ccc(OC)c(OC)c1 (stereo unspecified) | 101 | nt | nt | -4
COC(=O)Cc1[nH]n(-c2nc3ccccc3s2)c(=O)c1C(C)=NC1CC1 | 107 | 102 | 79 | -8
CS(=O)(=O)c1ccccc1-c1nnc(NC(=O)c2ccc3c(c2)OCCO3)o1 | 104 | 74 | 71 | nt
CCc1ccc(NC(=O)CN2C(=O)C(c3ccc(C)cc3)=NC23CCCCC3)cc1 | 102 | 109 | 84 | -22
COc1cc2c(cc1OC)CN(C(=O)C1CCCN1S(=O)(=O)c1ccc(C)cc1)CC2 (stereo unspecified) | 98 | 105 | 87 | -3
Cc1ccc2occ(CC(=O)N(Cc3ccc(N(C)C)cc3)C3CCS(=O)(=O)C3)c2c1 (stereo unspecified) | 105 | 114 | 91 | -6

Remaining list, next part.
SMILES | GIV Gai3 FP | Sa growth inh | Sa growth inh second temp | HCMV NEC inh
C/C(=N\NC(=O)c1cccnc1)C1COc2ccccc2O1 (stereo unspecified) | 105 | 102 | 105 | -10
COc1ccc(NC(=O)Cn2cc(S(=O)(=O)N3CCC(C)CC3)c3ccccc3c2=O)cc1Cl | 105 | 112 | 88 | -7
CCCOc1ccccc1C1C(C(=O)Nc2ccccc2)=C(C)Nc2nnnn21 (stereo unspecified) | 111 | 99 | 101 | -3
CCc1c(C)sc2c1CCN(C(=O)Nc1ccccc1OC)C2c1ccccc1 (stereo unspecified) | 96 | nt | nt | -1
CC(C)C(C)NC(=O)Nc1ccc(Cl)cc1 (stereo unspecified) | nt | 99 | 84 | -17
CC1CCc2nc(NC(=O)Cc3ccc(Cl)cc3)sc2C1 (stereo unspecified) | 102 | 73 | 65 | -5
CCC1NC(=S)NC(C)=C1C(=O)c1ccccc1 (stereo unspecified) | nt | 81 | 87 | 0
COc1cc(NC(=O)CSc2nc3nc(C)c(Cc4ccccc4)c(C)n3n2)cc(OC)c1OC | 101 | 118 | 84 | nt
C=CCc1cccc(CNc2ccc(C(=O)OCC)cc2)c1O | 106 | 113 | 89 | -3
CC1CCCN(C(=O)CCS(=O)(=O)Cc2ccccc2)C1 (stereo unspecified) | 104 | 107 | 107 | 3
N#Cc1cc(C#N)c(SCc2cc(=O)n3cc(Br)ccc3n2)nc1N | nt | 80 | 70 | -56
Cc1ccc(S(=O)(=O)N(CC(=O)N2CCCCCC2)c2ccc(C)c(Cl)c2)cc1 | 103 | 113 | 90 | nt
COCCNC(=O)CSc1nc2cc3c(cc2c(=O)n1CCCCCC(=O)NCc1ccc(OC)cc1)OCO3 | 109 | 108 | 95 | nt
CC1(C)CC(=O)C2=C(C1)Nc1[nH]c(=O)[nH]c(=O)c1C2c1ccc(Br)cc1 (stereo unspecified) | 108 | nt | nt | 2
CCC1CCCN1Cn1cnc2c([nH]c3ccc(C)cc32)c1=O (stereo unspecified) | 97 | 91 | 87 | nt
CCOC(=O)c1c(NC(=O)COC(=O)c2ccc(Br)o2)sc(C)c1CC | nt | 82 | 97 | -32
COc1ccc(-c2noc(-c3cccnc3N(C)Cc3ccccc3)n2)cc1 | 98 | nt | nt | -8
O=S(=O)(NCC(c1ccccc1)N1CCCCC1)c1ccc(Cl)cc1 (stereo unspecified) | 99 | nt | nt | 12
O=C1C2CC=CCC2C(=O)N1c1ccc(Cl)cc1 (stereo unspecified) | 108 | 98 | 98 | nt
Cc1ccc(NC(=O)Cn2c(=O)n(Cc3ccco3)c(=O)c3sc4ccccc4c32)c(C)c1 | 101 | 98 | 84 | -34
C/C=C(\C)C(=O)OC1c2c(ccc3ccc(=O)oc23)OC(C)(C)C1OC(C)=O (stereo unspecified) | 103 | 99 | 99 | -6
c1cncc(-c2nc(-c3ccc4ccccc4c3)cs2)c1 | nt | 113 | 91 | -24
Cc1ccccc1-n1c(SCC(=O)N(C(C)C)C(C)C)nnc1-c1cccnc1 | 97 | 89 | 86 | -19
C=Cc1ccc(COC(=O)c2nnn(-c3ccc(Cl)cc3)c2C)cc1 | 96 | nt | nt | 9
Cc1ccc(NC(=O)CCNS(=O)(=O)c2ccc3c(c2)CC(C)N3C(=O)C2CC2)cc1C (stereo unspecified) | 102 | 83 | 82 | -38
COC(=O)c1ccc2c(c1)N(CC(=O)Nc1cccc(Cl)c1C)C(=O)c1ccccc1S2 | 102 | 96 | 94 | nt
COc1ccc(-c2cc(=O)[nH]c(=S)[nH]2)cc1 | 102 | 97 | 104 | 22
CCOC(=O)C(C(=O)N1CCN(C)CC1)C1CCCCC1 (stereo unspecified) | 96 | 92 | 83 | -12
O=C1c2ccccc2C(=O)C1(c1ccccc1)N1CCN(CCO)CC1 | 100 | 94 | 88 | -32
CCC(CC)c1nnc(NC(=O)c2c(OC)cccc2OC)s1 | nt | 113 | 71 | 1
CN(Cc1ccccc1)C(=O)COC(=O)c1ccc(Cl)cc1N | nt | 117 | 89 | -14
CC(NC(=O)c1ccco1)C(=O)O (stereo unspecified) | nt | 112 | 88 | -18
O=S(=O)(NCC1COc2ccccc2O1)c1cccs1 (stereo unspecified) | 98 | 103 | 71 | -88
O=C(O)C1CC2CCC(C1)C21SCCS1 (stereo unspecified) | nt | 90 | 90 | -23

Bioassay records as filed in PubChem.

Rows were taken by chance, and some 0.8% of all compounds hit somewhere here.
